Sfp inh: blocks B. subtilis Sfp PPTase activity; Q9F4F7; Potency, µM, inactives show max response, negative = inhibition, most hits filed as inhibitors; Biochemical Sfp PPTase activity, qHTS; actives 3.5% (n = 310,000); active means well fitted inhibition curve with a large enough effect; inconclusive means small, poorly fitted or top-dose-only effect, or another doubt; inactive means no such curve, though single readings can be large or run the other way;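 further: the enzyme is Sfp with the accession as filed and its product quenches rhodamine fluorescence; potency means the concentration at half of the fitted maximal effect; 0% = enzyme reaction without inhibitor and -100% = no enzyme wells; top concentration of the series not given in the record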
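Step 1, compound plus 15 nM Sfp-PPTase, 15 min, room temperature. Step 2, add rhodamine-CoA (5 uM) and BHQ-2-YbbR (12.5 uM). Step 3, read 525/598 nm fluorescence at 0 and 30 min.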
TRPV1 PAM: potentiators of human vanilloid receptor 1 (TRPV1); Q8NER1; TRPV1-expressing cells, Fluo-8 calcium influx, capsaicin EC20 potentiation; host cell line not named in the record; control for the full effect not named in the record; potentiation, % at 8.33 µM; actives 0.02% (n = 320,000); active means potentiation above 80%; inconclusive means 30% to 80%; inactive means below 30%; further: 0% is about no effect
Target sequence (Q8NER1 whole entry, looked up): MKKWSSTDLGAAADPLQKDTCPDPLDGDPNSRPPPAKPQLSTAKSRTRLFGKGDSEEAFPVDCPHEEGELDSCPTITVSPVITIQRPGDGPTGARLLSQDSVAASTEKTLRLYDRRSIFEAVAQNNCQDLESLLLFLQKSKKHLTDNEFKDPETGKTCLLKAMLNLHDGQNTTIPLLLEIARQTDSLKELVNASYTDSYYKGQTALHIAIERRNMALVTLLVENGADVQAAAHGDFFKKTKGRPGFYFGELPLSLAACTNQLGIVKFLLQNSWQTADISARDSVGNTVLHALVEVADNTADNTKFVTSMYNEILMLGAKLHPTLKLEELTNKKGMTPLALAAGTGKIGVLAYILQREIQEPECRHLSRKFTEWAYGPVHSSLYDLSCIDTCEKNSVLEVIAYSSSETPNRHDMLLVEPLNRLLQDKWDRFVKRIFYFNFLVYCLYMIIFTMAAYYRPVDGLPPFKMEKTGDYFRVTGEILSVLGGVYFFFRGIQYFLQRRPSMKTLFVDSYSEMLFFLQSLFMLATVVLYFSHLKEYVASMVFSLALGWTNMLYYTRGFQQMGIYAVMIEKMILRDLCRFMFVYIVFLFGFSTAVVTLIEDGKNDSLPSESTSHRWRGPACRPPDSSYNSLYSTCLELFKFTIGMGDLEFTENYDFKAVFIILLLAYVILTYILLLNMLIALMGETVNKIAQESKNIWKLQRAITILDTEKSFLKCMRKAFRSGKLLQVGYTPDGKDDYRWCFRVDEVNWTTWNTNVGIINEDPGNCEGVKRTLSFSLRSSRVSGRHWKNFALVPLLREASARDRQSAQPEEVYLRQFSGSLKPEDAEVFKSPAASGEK
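Fluo-8 calcium influx in TRPV1-expressing cells, kinetic read (ex 480/em 520 nm). Compound added and read 3 min for agonist activity, followed by capsaicin at EC20 final and 2 min further read for enhancement.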
ClpP mod: qHTS Assay for Activators of ClpP | Potency, µM (titrated, usually from 57.5 µM), for the others: at the top dose activity change, negative = active | actives 1.9% (n = 340,000) | AID 651965, 2013 | purified B. subtilis ClpP, FRET peptide cleavage, 20 min | ATP-dependent Clp protease proteolytic subunit (Bacillus subtilis (strain 168)), P80244; active = well fitted falling curve with a large enough effect; inconclusive = small, poorly fitted or top-dose-only effect; inactive = no such curve, though single readings can be large or run the other way; further: potency means the concentration at half of the fitted maximal effect; the source files actives as falling curves though it sought activators and does not explain the sign; nearly all actives have a fitted effect of over 65% in size; many hits overshoot -100%
Target sequence (P80244 whole entry, looked up): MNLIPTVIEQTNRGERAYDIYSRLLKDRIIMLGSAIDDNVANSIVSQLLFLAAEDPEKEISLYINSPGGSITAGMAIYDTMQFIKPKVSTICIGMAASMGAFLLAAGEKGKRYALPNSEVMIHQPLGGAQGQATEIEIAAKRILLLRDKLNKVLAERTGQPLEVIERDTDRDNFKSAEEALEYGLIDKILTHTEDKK
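Purified B. subtilis ClpP, 10 microg/mL final in Tris/HCl pH8 with KCl, BSA, glycerol and Tween-20, cleaved an Abz/nitrotyrosine-quenched decapeptide. Fluorescence (ex 320, em 430) was read at 0 and 20 min at room temperature. Delta was normalized to 5.8 microM ADEP and DMSO/no-enzyme controls.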
TRPML1 inh: human mucolipin-1 channel inhibition | Q9GZU1 | TRPML1-inducible cells, Ca2+ dye fluorescence, FDSS; hits give low values; inhibition of EC80 agonist-evoked calcium signal | activity change, negative = inhibition, % (concentration not given with the values) | actives 0.02% (n = 390,000); in the data active means activity change below about -50%; inconclusive means about -30% to -50%; inactive means above about -30%;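 further: stimulus is agonist 54-4 at its EC80 concentration; on the % scale 0 is the no-effect control and ±100 the full control effect; compound concentration not given in the record; the text of the record puts the active cut at -80%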
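Calcium fluorescence in TRPML1-DL cells induced overnight with Tet: a 110 s read after compound pin addition, then a 110 s antagonist read after challenge with 54-4 at 4 uM final (EC80).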
gsp antag: gsp mutant antagonism; Potency, µM (highest dose often 76.9 µM), for inactives: at the highest dose activity change, negative = inhibition, actives largely listed as inhibitors; gsp-mutant cells, cAMP HTRF, 30 min; control for the full effect not named in the record; AID 624288; actives 0.4% (n = 340,000); active = falling curve of any shape with a large fitted effect; inconclusive = falling curve, mostly with a smaller effect; inactive = flat or rising curve; cell line not stated here;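 further: intracellular cAMP measured with PDE inhibitor Ro 20-1724 present during compound exposure; potency means the concentration at half of the fitted maximal effect; on the % scale 0 is the no-effect control and ±100 the full control effect; nearly all actives have a fitted effect of over 65% in size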
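Measurement of cellular cAMP by homogeneous time-resolved fluorescence following a 30 min compound exposure at 37C. The PDE inhibitor […] was present throughout; the assay buffer was DPBS with 0.05% BSA and 0.005% Tween 20.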
Menin-MLL FL inh: inhibitors of human menin-MLL interaction, wild-type MLL peptide. Fluorescence polarization, fluorescein-MLL peptide displacement from menin. FP activity change, % at 61.4 µM. 290,000 tested, under 10 active. AID 1766; inconclusive = falling polarisation curve, or a change in total fluorescence; inactive = total fluorescence flat and polarisation flat or rising; no compound was filed as active; the % refers to the polarisation; negative = inhibition;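 further: % of control where 0% means no effect; inhibitors lower the polarisation; unlabelled MLL peptide was the positive control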
gsp agonist: agonists of gsp mutant (McCune-Albright syndrome). gsp mutant cells, cAMP HTRF, 30 min; control for the full effect not named in the record. Potency, µM (titrated, usually from 76.9 µM), inactives show at the top dose activation (cAMP increase), usual class: activators. actives 0.13% (n = 340,000). AID 624287; active = well fitted activation curve with a large enough effect; inconclusive = small, poorly fitted or top-dose-only effect, or another doubt; inactive = no such curve, though single readings can be large or run the other way; cell line not stated here;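 further: phosphodiesterase inhibitor Ro 20-1724 added with compounds to block cAMP breakdown; potency means the concentration at half of the fitted maximal effect; nearly all actives have a fitted effect of over 60% in size; about a fifth of the inactives were tested at one dose only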
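Cells stably selected in G418 were plated at 2000/well, grown 16-24 hr, then given compounds in DMSO with the PDE inhibitor […] (300 uM solution added) for 30 min at 37C; cAMP was read by HTRF.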
Numbers without * were called inactive; ? = inconclusive; · = not tested or not shown; & = joins results of further samples; [ ] = another dose, or the depositor's remark.

SMILES	Sfp inh	TRPV1 PAM	ClpP mod	TRPML1 inh	gsp antag	Menin-MLL FL inh	gsp agonist
O=C(c1csc2c1CCCC2)n1cccn1	·	·	·	-12	-2%	·	20%[15.4 µM]
O=C(CCc1ccccc1)NCc1ccc2c(c1)OCO2	21%	-1	·	29	9%	1.0	-16%
CC1SC(c2ccc(Cl)cc2)NC1=O (stereo not drawn)	?	1	-24%	36	3%	5.3	17%
Cc1nn(C)c(C)c1CCC(=O)NC1CC(C)(C)Cc2c1cnn2-c1ccccc1 (stereo not drawn)	16%	-2	0.8%	5	2%	·	-3%[15.4 µM]
C[C@@H](NC(=O)OC(C)(C)C)c1nnc(S(=O)(=O)Cc2ccccc2)o1	22µM*	-2	·	18	-7%	1.7	?
CCOC(=O)C1=C(C)NC2=C(C(=O)CC(C)(C)C2)C1c1ccc2c(c1)CCCN2C (stereo not drawn)	7%	-17	3.6%	15	-3%	1.6	5%
Cn1c2c(c(=O)n1-c1ccccc1)CSCC2	·	·	-2.2%	9	4%	·	21%
CCN(C(=O)CSc1nnc(Cn2nnc3ccccc32)o1)c1nc(C)cs1	20µM*	5	-0.1%	12	-3%	1.0	7%
Cc1ccc(NS(=O)(=O)c2ccc(C)c(NC(=O)c3ccc(S(=O)(=O)N4CCCCCC4)cc3)c2)c(C)c1	·	·	-7.3%	14	·	·	28%
CCC1COCCS(=O)(=O)N1Cc1cccc(C(F)(F)F)c1 (stereo not drawn)	15%	27	0.9%&-1.3%	18	5%	-2.5	-33%
Cc1ccccc1N1CCN(C2CCCN(C(=O)c3snnc3C)C2)CC1 (stereo not drawn)	9%	9	0.2%	1	-5%	·	7%[15.4 µM]
C[C@H](NC(=O)c1nc[nH]c1C(=O)NCC(=O)OCc1ccccc1)c1ccccc1	5%	20	1.1%	-4	9%	6.9	?
O=C(c1ccc(NC(=S)NCc2ccco2)cc1)N1CCCCC1	?	-2	·	-4	5%	12	-1%[15.4 µM]
COc1ccccc1NC(=O)CSc1nnc(CC(=O)Nc2ccccc2)n1C	12%	-4	0.6%	9	-9%	0.5	-6%
CSc1ncc(C(=O)Nc2ccccc2)cn1	7%	-16	-0.9%	-1	4%	3.5	-13%
O=C1c2nc3cc(-c4ccccc4)[nH]n3c(=O)c2CN1Cc1ccccc1	-9%	-16	4.0%	-8	4%	10	23%
CCOc1cc(C)c(-c2onc(C(F)(F)F)c2-c2csc(C)n2)c(O)c1	17%	-1	-1.7%	-11	?	1.9	5%
O=C(CN(C(=O)c1csnn1)c1cccc2ccccc12)NC1CCCC1	13%	-9	·	-9	-2%	-5.2	2%[15.4 µM]
O/C(=C\Sc1nnc(Cc2ccccc2)o1)c1ccc(F)cc1	4%	11	1.4%	87	4%	2.9	2%
Cc1cccc2cc3c(NC(=O)CC(C)C)nn(C)c3nc12	9%	-27	-2.3%	-7	5%	-1.1	-15%
Cc1ccc(C(=O)NCCC(=O)NCc2ccco2)cc1	17%	-1	0.8%	46	0%	-5.2	?
O=C(C1COc2ccccc2O1)N1CCCC1 (stereo not drawn)	14%	-15	1.0%	-7	15%	2.0	-6%
CCOC(=O)C(NC(=O)c1ccccc1OCC)(Nc1ncccn1)C(F)(F)F (stereo not drawn)	0%	3	-11%	-22	-9%	-0.4	6%
COc1ccc(CCNC(=O)c2ccc(N(C)S(=O)(=O)c3ccccc3)cc2)cc1	11%	8	·	2	-6%	-4.0	-4%[15.4 µM]
Cc1ccccc1OCC(=O)OCC(=O)NCC1CCCCC1	·	·	0.6%	-2	10%	·	-23%
CCN(CC(=O)Nc1c(F)cccc1F)C(=O)c1ccccn1	·	2	0.4%	-7	13%	·	2%
CCOP(=O)(OCC)c1nc(Cc2ccccc2)oc1NCc1ccccc1	12%	0	0.3%	28	0%	6.0	0%
O=C(Cn1c(N2CCN(c3ccccc3)CC2)nc2ccccc21)c1ccccc1	-3%	-15	-28%	9	-28%	3.7	-2%
CCOC(=O)Cn1c(-c2nonc2NC(=O)c2ccccc2F)nc2ccccc21	-3%	10	-15%	-4	-7%	3.3	-35%[15.4 µM]
NS(=O)(=O)c1ccc(CCNC(=O)C2CCCO2)cc1 (stereo not drawn)	8%	1	-1.2%	-25	4%	-2.5	-1%[15.4 µM]
Cc1ccc(NC(=O)CN(C)C(=O)CSc2nnc(C(F)(F)F)n2C)cc1	-15%	-7	·	-16	-5%	5.2	7%[15.4 µM]
COc1ccc(/C=N/n2c(-c3ccco3)nc3ccccc3c2=O)cc1	8%	-16	1.3%	33	2%	1.3	-10%
CCC(C)/C(C)=N/NC(=O)c1cn(-c2ccccc2)nc1-c1ccccc1 (stereo not drawn)	9%	-10	-2.8%	-10	4%	2.6	7%
COc1ccc(-n2nnnc2CNC(=O)c2ccc3ccccc3c2)cc1	·	-21	-16%	-6	-1%	·	?
CCN(CC)S(=O)(=O)c1ccc(C(=O)NCCOC(=O)c2ccc(F)cc2F)cc1	5%	11	·	-3	-17%	-14	20%[15.4 µM]
O=C(c1ccc([N+](=O)[O-])s1)N1CCN(c2ccccn2)CC1	6%	-32	·	5	-3%	-0.2	18%[15.4 µM]
COc1ccc(-n2nc(C(=O)NCC(=O)N(C)Cc3ccccc3)c3ccccc3c2=O)cc1OC	37%[activator]	6	·	-1	-17%	-0.4	4%
CCCc1nc2c(o1)CC(CC(C)SCC)CC2=O (stereo not drawn)	9%	-11	0.4%	3	10%	-1.0	16%
CCOc1c(C#N)c(C#N)c2nc(C)cc(C)n12	9%	-5	-16%	-1	-1%	?	?
NCCCC[C@@H]1NC(=O)c2cc([N+](=O)[O-])cc(I)c2SC[C@@H](C(N)=O)NC(=O)[C@H](Cc2ccc(O)cc2)NC1=O	-22%	5	-2.5%	27	8%	-1.5	12%
CC(C)NC(=O)C1CCN(C(=O)N(C)C)CC1	14%	1	-17%	-8	1%	2.9	-33%[inhibitor]
CC(C)CC(=O)NC(=S)N1CCN(c2ccc([N+](=O)[O-])cc2Cl)CC1	-7%	2	-1.8%	44	-16%	2.6	5%
COc1ccc(NC(=O)CC(=O)Nc2ccc(OC)cc2OC)c(OC)c1	8%	16	-0.3%	-4	9%	5.0	-34%[inhibitor]
O=C(NCc1cc2ccccc2[nH]1)C1CCC(=O)N(CCCN2CCCC2=O)C1 (stereo not drawn)	7%	2	-5.6%	10	10%	4.3	5%
CSCCC(NC(N)=O)C(=O)NCc1ccc(Cl)cc1 (stereo not drawn)	-10%	7	-7.5%	0	2%	3.4	5%
CC(C)C(=O)Nc1ccc2c(c1)nc(CCN1CCN(c3ccccn3)CC1)n2C	2%	-8	·	2	-3%	2.1	17%
Cc1cccc(NC(=O)c2cnn(-c3ccc(F)cc3)c2C2CCNCC2)c1C	19%	-3	3.7%	-1	4%	0.1	-2%[15.4 µM]
O=C(CNc1cccc([N+](=O)[O-])c1)NC(=O)NC1CCCCC1	·	·	1.2%	15	-16%	·	0%
O=C(CN1C(=O)CC(c2ccccc2)=Nc2ccccc21)NCc1ccccc1	-2%	-28	-2.5%	6	3%	2.0	-5%
CC(=O)c1cccc(NC(=S)N2CCN(S(=O)(=O)c3ccccc3)CC2)c1	-22%	-3	-0.6%	14	-3%	-1.5	-7%
Following part:
SMILES	Sfp inh	TRPV1 PAM	ClpP mod	TRPML1 inh	gsp antag	Menin-MLL FL inh	gsp agonist
O=C(Nc1ccncc1)c1cccc(S(=O)(=O)N2CCN(c3ccc(F)cc3)CC2)c1	·	-9	-5.5%	35	-15%	·	2%
CCOC(=O)c1sc(NC(=O)COC(=O)CNC(=O)c2ccco2)c(C(=O)OCC)c1C	?	-3	-3.8%	-4	?	4.0	1%
Nc1ccccc1NC1=CC(=O)CC(c2ccccc2)C1 (stereo not drawn)	12%	-3	·	·	·	-0.3	·
Cc1cc(C)c2ccc3c(C)c(C)nc3c2[nH]1	0%	22	·	-3	?	-14	-1%[15.4 µM]
O=C(COC(=O)[C@@H]1CCCN1C(=O)c1cccs1)NCCc1ccccc1	-4%	-8	1.1%	-6	-7%	3.2	25%
c1ccc(COc2cncc(-c3cccnc3)c2)cc1	·	-12	-4.2%	25	-5%	·	-11%
O=C(Nc1ccnn1C1CCN(CC2CC=CCC2)CC1)c1ccccc1 (stereo not drawn)	17%	17	1.3%	8	2%	?	-36%[inhibitor]
Cc1cc(C(C)(C)C)ccc1OCCn1ccnc1	-9%	0	0.0%	28	20%	-2.2	13%
Cn1nc(C(F)(F)F)c(-c2ccc(Br)cc2)c1NC(=O)C1CCC1C(=O)O (stereo not drawn)	11%	11	·	-10	3%	5.2	-2%
Cc1ccc(NC(=O)c2ccc(CNc3c(N4CCOCC4)c(=O)c3=O)cc2)cc1	-1%	7	1.9%	-2	-12%	3.2	?
C=C(Cl)COc1ccc2c(CCCC)cc(=O)oc2c1	-21%	-8	28µM*	-6	-17%	-0.9	9%
COc1ccc(CNS(=O)(=O)c2ccc(Br)s2)cc1	0%	2	·	10	-2%	5.7	-15%
CCn1c(SCC(=O)N2CCCc3ccccc32)nnc1-c1c[nH]c2ccccc12	8%	10	1.3%	5	-24%	0.7	-4%
CCCCN(CC(=O)NCc1ccc(F)cc1)C(=O)c1ccco1	-4%	-4	-3.0%	-9	-3%	-0.4	-8%
Cc1cc(C)c(C#N)c(SCc2nc3ccccc3[nH]2)n1	12%	-4	-9.5%	-3	5%	4.1	8%
C[C@@H]1CN([C@H](C)CO)C(=O)c2cc(NC(=O)Cc3ccccc3)ccc2O[C@H]1CN(C)Cc1ccc(Oc2ccccc2)cc1	·	·	-0.7%	-4	-29%	·	·

A different layout for two compounds above.
SMILES,Sfp inh,TRPV1 PAM,ClpP mod,TRPML1 inh,gsp antag,Menin-MLL FL inh,gsp agonist
COc1ccc(CNS(=O)(=O)c2ccc(Br)s2)cc1,0%,2,·,10,-2%,5.7,-15%
Cc1cc(C)c(C#N)c(SCc2nc3ccccc3[nH]2)n1,12%,-4,-9.5%,-3,5%,4.1,8%
